StopGo reporter: FMDV 2A StopGo reporter, luciferase signal; human cells with a luciferase reporter of 2A StopGo recoding; control for the full effect not named in the record; Potency, µM (series often up to 57.9 µM), without a hit: at the highest dose signal change, negative = less light; 410,000 tested, 1.2% active; active = well fitted falling curve with a large enough effect; inconclusive = small, poorly fitted or top-dose-only effect; inactive = no such curve, though single readings can be large or run the other way; tested in HEK293T cells; further: on the % scale 0 is the no-effect control and ±100 the full control effect; nearly all actives have a fitted effect of over 45% in size; luciferase light after 4 h
Marburg entry inh: inhibitors of Marburg virus binding or cell entry | Marburg virus pseudotyped entry inhibition, cell reporter; control for the full effect not named in the record; about a third of the inactives were read at about 46 µM | Potency, µM (titrated, usually from 37.8 µM), for inactives: top-dose activity change, negative = inhibition, actives largely listed as inhibitors | 300,000 tested, 1.8% active | AID 540276; active = well fitted inhibition curve with a large enough effect; inconclusive = small, poorly fitted or top-dose-only effect, or effect the other way; inactive = flat fitted curve, though single readings scatter; tested in HEK293 cells; about a fifth of its hits are not listed in these tables; further: on the % scale 0 is the no-effect control and ±100 the full control effect; luciferase read-out
Lassa entry inh: blocks Lassa virus binding to or entry into cells; Lassa virus pseudotype entry inhibition, cell reporter; control for the full effect not named in the record; Potency, µM (top dose mostly 37.9 µM), without a hit: at the top dose activity change, negative = inhibition, most hits filed as inhibitors; 300,000 tested, 1.2% active; AID 540256; active means well fitted inhibition curve with a large enough effect; inconclusive means small, poorly fitted or top-dose-only effect, or effect the other way; inactive means flat fitted curve, though single readings scatter; tested in HEK293 cells; further: on the % scale 0 is the no-effect control and ±100 the full control effect; nearly all actives have a fitted effect of over 50% in size; luciferase read-out
SARS PLP yeast: SARS-CoV PLP inhibition in yeast; 330,000 tested, 0.19% active; S. cerevisiae expressing SARS-CoV PLpro, growth rescue; control for the full effect not named in the record; Potency, µM (doses to about 32.9 µM), for the others: at the highest dose activity, positive = growth rescue; active means well fitted rising curve with a large enough effect; inconclusive means small, poorly fitted or top-dose-only effect; inactive means no such curve, though single readings can be large or run the other way; further: 0% is about no effect; nearly all actives have a fitted effect of over 55% in size; growth read by luminescence after 48 h
Cruzain inh noDet: cruzain (T. cruzi) inhibition without detergent; P25779; purified cruzain, Z-FR-AMC fluorescence, no detergent; Potency, µM, without a hit: max response, negative = inhibition, usual class: inhibitors; 200,000 tested, 2.3% active; AID 1476;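 further: plate controls were enzyme without inhibitor for no effect and buffer without enzyme for full effect; nearly all actives have a fitted effect of over 40% in size; top concentration of the series not given in the record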
Target sequence (P25779 123-467 limits assumed): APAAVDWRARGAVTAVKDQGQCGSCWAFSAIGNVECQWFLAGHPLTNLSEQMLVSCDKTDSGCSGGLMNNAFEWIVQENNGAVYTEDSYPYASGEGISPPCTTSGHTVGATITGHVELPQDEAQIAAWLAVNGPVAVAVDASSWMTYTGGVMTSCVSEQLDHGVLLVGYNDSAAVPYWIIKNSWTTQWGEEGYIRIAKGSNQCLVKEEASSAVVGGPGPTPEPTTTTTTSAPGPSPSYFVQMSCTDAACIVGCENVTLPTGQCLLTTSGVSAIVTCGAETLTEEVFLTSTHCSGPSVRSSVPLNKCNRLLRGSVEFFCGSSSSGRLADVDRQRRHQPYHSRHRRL
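Detergent-free condition (0.00005% Triton X-100) in acetate buffer pH 5.5 with DTT. 1.5 nM enzyme and compound were pre-mixed 15 min, then 2 uM Z-FR-AMC substrate added; reaction progress from fluorescence change between first and third reads (60 s).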
Cruzain Triton: blocks cruzain activity in presence of Triton detergent | P25779 | AID 1478 | purified cruzain, Z-FR-AMC fluorescence, 0.01% Triton | Potency, µM, for inactives: max response, negative = inhibition, most hits filed as inhibitors | 200,000 tested, 0.43% active;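 further: plate controls were neutral wells for no effect and buffer without enzyme for full effect; nearly all actives have a fitted effect of over 40% in size; top concentration of the series not given in the record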
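Steps: dispense cruzain (1.5 nM final) in acetate buffer pH 5.5 with DTT and 0.01% Triton X-100; pin-transfer compounds; incubate 15 min RT; add Z-FR-AMC (2 uM final); read fluorescence every 30 s, using the 60 s intensity change.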
RE007 growth inh: less growth of the S. pombe RE007 Vpr strain; S. pombe RE007 Vpr strain, BacTiter-Glo ATP luminescence, 24 h; control for the full effect not named in the record; AID 651644; Potency, µM (doses to about 92.2 µM), for the others: at the highest dose activity change, negative = less growth; 360,000 tested, 0.21% active; active = well fitted falling curve with a large enough effect; inconclusive = small, poorly fitted or top-dose-only effect; inactive = no such curve, though single readings can be large or run the other way;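 further: on the % scale 0 is the no-effect control and ±100 the full control effect; nearly all actives have a fitted effect of over 50% in size; the assay follows cell death caused by Vpr and the record does not say whether a fall means rescue or toxicity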
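Fission yeast RE007 carrying one integrated HIV-1 vpr copy, seeded at OD 0.01 in PMG+AL medium with 23 nL pinned compound. Grown 24 h at 30 degrees; viability read by BacTiter-Glo luminescence after 5 min.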
NS1 inh: influenza NS1 inhibition | S. cerevisiae slowed by influenza A NS1, growth recovery by OD600 | Potency, µM (highest dose often 46.1 µM), inactives show at the top dose activity, positive = more growth | 270,000 tested, 0.4% active | AID 2326; active means well fitted rising curve with a large enough effect; inconclusive means small, poorly fitted or top-dose-only effect; inactive means no such curve, though single readings can be large or run the other way; further: nearly all actives have a fitted effect of over 50% in size
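Compounds were scored for reversing the slow growth caused by influenza A NS1 in S. cerevisiae, measured by optical density at 600 nm. Assay medium contained 2% galactose at pH 6.0; NS1-free yeast of the same strain were the positive control.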
Starred values were filed as active, the others as inactive; ? = inconclusive; . = no result given; & = joins results of further samples; [ ] = another dose, or the depositor's remark. Unless noted, the call rests on the fitted dose curve; in most records, active means well fitted curve in the direction sought with a large enough effect; inconclusive means small, poorly fitted or top-dose-only effect, or another doubt; inactive means no such curve, though single readings can be large; an effect the other way counts as inactive or inconclusive. Potency means the concentration at half of the fitted maximal effect.

SMILES	StopGo reporter	Marburg entry inh	Lassa entry inh	SARS PLP yeast	Cruzain inh noDet	Cruzain Triton	RE007 growth inh	NS1 inh
COc1ccc(CNC(=O)c2cccnc2Sc2ccc(Cl)cc2)cc1	-18%	8%	?	-4%	-6%	2.0%	-4%	15%
Cc1cc(SCCC(=O)O)nc2ccccc12	-27%	0%	10%	-8%	2%	-2.7%	-13%	-115%
NC(=O)CC(NC(=O)Cc1ccc(Br)cc1)c1ccc(NCCOc2ccccc2)c([N+](=O)[O-])c1 (stereo unspecified)	-6%	.	.	-3%	.	.	-1%	3%
O=C(Nc1ccc(CN2CCOCC2)cc1)c1cc2ccccn2n1	-66%	?	6.5µM*	13%	-8%	-1.5%	-14%	-33%
CCOc1ccc(Cl)cc1S(=O)(=O)n1nnc2ccccc21	0%	0%	5%	0%	0%	4.1%	-6%	-7%
COc1cccc(NC(=O)Cc2ccc3ccccc3c2)c1	-8%	.	.	-1%	.	.	2%	-32%
COC(=O)c1ccc(COc2ccccc2/C=N/NC(N)=O)o1	-1%	?	7%	0%	.	.	-3%	-4%
Cc1nnc(SCC(=O)Nc2ccc(N3CCOCC3)cc2)o1	12%	0%	?	6%	-7%	2.2%	-2%	3%
Cc1ccc(Oc2cc(N3CCOCC3)nc(-c3ccccc3)n2)cc1	-19%	-19%	0%	2%	5%	0.9%	-9%	4%
CC1(C)CC(=O)c2cc(C(=O)NNc3ccccc3)c(=O)n(-c3ccccc3)c2C1	-3%	0%[46.1 µM]	?	4%	.	.	306%	.
O=C(CN1CCCCC1)NCC1(c2ccccc2)CCCC1	-11%	-22%[46.1 µM]	-2%	1%	.	.	-18%	-1%
O=C(c1ccccc1[N+](=O)[O-])n1cnc2ccccc21	5%	-2%[46.1 µM]	-13%	1%	.	.	1%	0%
COCCN(Cc1nc(C2(c3ccc(C)cc3)CCCC2)no1)C(C)C	-20%	?	?	1%	.	.	14%	-10%
c1ccc(-c2cn3nc(-c4ccccc4)cnc3n2)cc1	5%	-4%	?	4%	?	0.7%	-6%	-12%
CC(C)(C)NC(=O)C(c1ccsc1)N(CCc1ccccc1)C(=O)Cn1nnc2ccccc21 (stereo unspecified)	.	-11%	9%	4%	13%	6.1%	5%	?
O=C(NC(=S)Nc1cccc(O)c1)C1CCCCC1	39%[activator]	22%	4%	6%	.	.	39%	.
CN=C(c1ccccc1)c1c(C)cccc1C	-11%	?	-1%	?	4%	-0.7%	-1%	-9%
Cc1sc2ncn(CC(=O)N3CCN(c4cccc(Cl)c4)CC3)c(=O)c2c1S(=O)(=O)N1CCC(C)CC1	?	?	?	.	14%	-5.2%	.	.
O=C(CSc1nnc(Nc2ccccc2)s1)Nc1cccc(S(=O)(=O)N2CCCCC2)c1	-38%	?	?	2%	?	4.3%	13%	11µM*
N#CCC(=O)c1sccc1-n1cccc1	-13%	-15%[46.1 µM]	12%	-11%	.	.	2%	.
CCOC(=O)N1CCN(C(=O)C2CCN(c3nnc(-n4cccc4)s3)CC2)CC1	-6%	.	.	1%	.	.	5%	1%
COc1ccc(C(=O)c2ccccc2O)c(O)c1	-21%&18%	.	.	.	-15%&-7%	-2.6%&-3.4%	-9%[18.4 µM]	.
CSc1ccc(N=Nc2c(C)[nH]n(C)c2=O)cc1	36%[activator]	?	20%	-2%	.	.	2%	-7%
C#CCOCCOCCOCCNc1nc(N2CCOCC2)nc(N2CCN(C(=O)[C@H](Cc3cc4ccccc4[nH]3)n3cc([C@@H](N)CC(C)C)nn3)CC2)n1	-5%	.	.	0%	.	.	-9%	2%
CCn1c(Cc2ccc(OC)cc2)nnc1SCC(=O)N1CCN(c2ccccc2)CC1	?	?	?	-2%	6%	1.8%	14%	7%
SMILES	StopGo reporter	Marburg entry inh	Lassa entry inh	SARS PLP yeast	Cruzain inh noDet	Cruzain Triton	RE007 growth inh	NS1 inh
O=C(CCNS(=O)(=O)c1ccc(Cl)cc1)N1CCN(c2ncccn2)CC1	8%	?	12%	1%	.	.	-24%	.
Cc1c(C(=O)NCC2COc3ccccc3O2)oc2ccc(S(=O)(=O)N3CC(C)CC(C)C3)cc12 (stereo unspecified)	.	?	-30%	-6%	20µM*	1.8%	-3%	11%
O=C(O)c1ccc(N2CCCCC2)cc1	-7%	1%	18%	7%	0%	-5.8%	-13%	5%
Cc1ccc2c(c1)N(C(=O)N1CCC(C(=O)NC3CCCCCC3)CC1)CCO2	-22%	.	2%[46.1 µM]	.	-2%	-3.1%	.	.
Cc1cccc(C(=O)Nc2nc(-c3ccc(Br)cc3)ns2)c1	-15%	4%[46.1 µM]	-8%[46.1 µM]	.	-6%	0.4%	.	.
O=C(NC1CCCCC1)c1cc(-c2ccc(Cl)cc2)on1	1%	9%[46.1 µM]	9%	10%	.	.	10%	6%
N/C(=N\OC(=O)c1ccc2ccccc2c1)c1cccc([N+](=O)[O-])c1	22%	?	8%	-9%	?	-0.2%	-23%	-23%
CC(C)[C@H](NC(=O)Nc1ccc(S(N)(=O)=O)cc1)C(=O)O	-6%	5%	13%	1%	9%	5.0%	14%	-4%
O=C1NC(=S)NC(=O)C12C(c1ccccc1)NC(=S)NC2c1ccccc1 (stereo unspecified)	-21%	2%[46.1 µM]	9%	-3%	-8%	-2.8%	14%	6%
O=C(NC1CCCCCC1)C1c2ccccc2C(=O)N1C1CC1 (stereo unspecified)	-7%	-2%	-14%	4%	1%	0.6%	-5%	-4%
O=C(Nn1c(=O)[nH]c2ccccc2c1=O)c1ccco1	-6%	4%	8%	0%	3%	4.6%	6%	-2%
COc1ccc(-c2cc(C(F)(F)F)n3nc(C(=O)N(C)Cc4ccccc4)cc3n2)cc1OC	-8%	.	.	1%	.	.	-9%	6%
CCN1CCN(S(=O)(=O)c2ccc(OC)c(NC(=O)c3ccccc3)c2)CC1	12%	1%	1%	4%	.	.	19%	-4%
COc1cccc(C(=O)C2CCCN(Cc3cccc(-n4nc(C)cc4C)c3)C2)c1 (stereo unspecified)	?	.	.	0%	.	.	8%	-3%
COc1cc(C=c2c3ccccc3n3c2cc(-c2ccccc2)[n+]3C)cc(OC)c1OC	?	?	14µM*	.	.	.	?	.
Cc1ccc(-c2noc(CSc3nnc(CCc4ccccc4)n3-c3ccccc3)n2)cc1	-23%	?	?	-2%	1%	-5.0%	13%	3%
CC(/C=C/c1ccc2c(c1)OCO2)=N/NC(=O)C1COc2ccccc2O1 (stereo unspecified)	.	3%	?	-11%	8%	-9.9%	.	4%
O=C(CN1C(=O)/C(=C\c2cccs2)SC1=S)Nc1cccc(C(=O)O)c1	-6%	?	-18%[46.1 µM]	0%	.	.	1%	4%
CN1CCCN(C(=O)CC(c2ccccc2)c2ccccc2)CC1	-4%	.	.	0%	.	.	2%	-4%
Cc1ccsc1C(=O)C1CCCN(Cc2cc(F)ccc2-n2cccn2)C1 (stereo unspecified)	?	?	?	0%	.	.	-9%	-2%
CCn1ccnc1CN1CCC(n2nccc2NC(=O)c2ccccc2OC)CC1	10µM*	3%[46.1 µM]	-5%[46.1 µM]	0%	.	.	1%	6%
COc1ccc(NC(C)=O)cc1NC(C)C(=O)Nc1ccc(S(=O)(=O)N2CCCCC2)cc1 (stereo unspecified)	-6%	-6%	-10%	-7%	.	.	1%	.
O=C(COC(=O)c1ccc2ccccc2n1)Nc1ncc(C(F)(F)F)cc1Cl	-4%	-4%	1%	1%	1%	-2.2%	?	-12%
COc1cccc(NC(=O)CSc2nc3ccccc3c(=O)n2C)c1	0%	.	.	1%	.	.	6%	-13%
CC1CCN(C(=O)c2[nH]cnc2C(=O)N[C@@H](Cc2ccccc2)C(=O)OC(C)(C)C)CC1	-2%	.	.	6%	.	.	1%	19%
SMILES	StopGo reporter	Marburg entry inh	Lassa entry inh	SARS PLP yeast	Cruzain inh noDet	Cruzain Triton	RE007 growth inh	NS1 inh
CCc1cccc(CC)c1NC(=O)CCS(=O)(=O)c1ccc2c(c1)CCN2C(C)=O	-16%	-11%[46.1 µM]	7%[46.1 µM]	.	22%	-3.9%	.	.
O=S(=O)(CCOc1ccccc1)c1nc2ccccc2[nH]1	-20%	-25%	3%	-3%	0%	1.3%	0%	2%
CCCCCOc1ccc(/C=c2\sc3ncnn3c2=O)cc1	.	-9%	.	-6%	-8%	5.1%	.	-2%
COc1cc(O)c(C(CC(=O)N2CCCC2)c2cc(OC)c(OC)c(OC)c2)c(OC)c1 (stereo unspecified)	-15%	.	.	1%	.	.	-2%	-4%
COc1cccc(CN(C)C(=O)c2cc(S(=O)(=O)NC3CCCCC3)ccc2C)c1	-10%	?	?	1%	.	.	5%	.
CCSc1nnc2n(N)c(=O)c3ccccc3n12	.	.	.	6%	0%	2.0%	.	12%
Cn1c(=N)n(CC(O)c2ccccc2)c2ccccc21 (stereo unspecified)	9%	?	1%	9%	0%	2.0%	15%	-2%
CSc1ccccc1NC(=O)CSc1cccc[n+]1[O-]	-1%	28%	13%	0%	.	.	7%	.
Cc1ccc(NC(=O)CN2C(=O)c3ccccc3C2=O)c(C)c1	-4%	-13%[46.1 µM]	12%[46.1 µM]	8%	.	.	3%	7%
O=C(C[n+]1ccccc1)Nc1ccccc1[N+](=O)[O-]	-5%	9%[46.1 µM]	16%[46.1 µM]	5%	.	.	-3%	6%
COCCCn1c(Cc2csc(Nc3ccc(F)cc3)n2)nnc1SCC(N)=O	-1%	?	13%	-3%	-5%	3.8%	8%	-5%
O=C(c1ccccc1F)N1CCN=C1c1ccccc1	-12%	20%[46.1 µM]	-1%[46.1 µM]	0%	.	.	-5%	-2%
Cc1ccc(C)c(NC(=O)C2CCCN(S(=O)(=O)c3cn(C)cn3)C2)c1 (stereo unspecified)	15%	.	3%[46.1 µM]	.	4%	0.6%	.	.
Cc1cccc(OP(=O)(Nc2c(C)n(C)n(-c3ccccc3)c2=O)Oc2cccc(C)c2)c1	-13%	-8%	4%	-5%	-5%	-0.8%	3%	-12%

Screening data from PubChem BioAssay.
